VDR inhibitor – inhibitors of human vitamin D receptor | P11473 | VDR-SRC2-3 peptide fluorescence polarization, 2 h | Potency, µM, without a hit: max response, negative = inhibition, hits mostly inhibitors | 400,000 compounds, 0.93% hits | AID 504847; active = well fitted inhibition curve with a large enough effect; inconclusive = small, poorly fitted or top-dose-only effect, or another doubt; inactive = no such curve, though single readings can be large or run the other way; also: series mostly up to about 120 µM
Target sequence (P11473 whole entry, looked up): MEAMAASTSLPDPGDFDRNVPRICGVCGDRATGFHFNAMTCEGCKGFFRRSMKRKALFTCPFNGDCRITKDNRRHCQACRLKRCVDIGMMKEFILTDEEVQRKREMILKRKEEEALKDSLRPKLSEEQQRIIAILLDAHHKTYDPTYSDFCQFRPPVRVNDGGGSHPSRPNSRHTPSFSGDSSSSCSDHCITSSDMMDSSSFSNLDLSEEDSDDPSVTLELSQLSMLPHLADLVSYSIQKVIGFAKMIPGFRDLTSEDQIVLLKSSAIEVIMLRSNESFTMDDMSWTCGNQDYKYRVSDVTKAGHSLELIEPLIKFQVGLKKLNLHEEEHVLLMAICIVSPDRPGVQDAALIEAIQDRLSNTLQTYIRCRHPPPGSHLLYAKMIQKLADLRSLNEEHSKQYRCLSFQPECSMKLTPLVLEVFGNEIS
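Compounds are added to VDR with labelled SRC2-3 coactivator peptide and held 2 h at room temperature. Inhibition of the VDR–peptide interaction is then read as a change in fluorescence polarization.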
The depositor's hits bear a star; ? = inconclusive; [ ] = dose if it differs, or a comment. % is scaled to controls: 0 for no effect and ±100 for the full control effect; potency is read from the fitted curve at half-maximal effect. Not all compounds are listed. The share of hits here may be higher or lower than overall.

VDR inhibitor | mol
-8% | O=C(Cc1cccc(NC(=O)C2CCN(C(=O)C3CC3)CC2)c1)Nc1cccc(C(=O)N2CCCCC2)c1
-3% | COc1ccc(C(=O)NCCCn2ccnc2)cc1[N+](=O)[O-]
-5% | Cc1[nH]c(C)c(S(=O)(=O)N2CCCCC2C)c1C(=O)N1CCCC1 (stereo not given)
-3% | Cc1ccc(CN(c2ccc(C(=O)Nc3ccc4c(c3)OCO4)cc2)S(C)(=O)=O)cc1
-1% | CC(=O)Nc1ccc(NC(=O)CCCSc2nc3ccccc3s2)cc1
-2% | CCOCCCn1c(=S)[nH]c2cc(C(=O)NCCc3ccc(OC)c(OC)c3)ccc2c1=O
3% | NC(=O)CSc1ncc2c(n1)-c1ccccc1N(Cc1ccccc1)S2(=O)=O
-12% | CC(C)C[C@H](NC(=O)c1nc[nH]c1C(=O)N1CCNCC1)C(=O)OC(C)(C)C
-4% | COc1ccc(CCNC(=O)CCC(=O)N2CCN(S(=O)(=O)c3ccc(Cl)cc3)CC2)cc1OC
-8% | COc1ccc(Cc2nc(-c3ccccn3)no2)cc1OC
2% | CC(C)c1ccc(NC(=O)CSc2ncnc3c2sc2ccccc23)cc1
10% | Cc1cc(C)c(NC(=O)CCn2c(=O)c3cccn3c3cccnc32)c(C)c1
-25% | Cc1ccc(NC(=O)CN2C(=O)N/C(=C\c3ccco3)C2=O)cc1
7% | Cc1cc2n(n1)C(c1ccc(O)cc1)Nc1ccccc1-2 (stereo not given)
16% | CC/C(O)=N\S(=O)(=O)c1ccc(N=NN(C)C)cc1
? | O=C1N=c2ccc(Br)cc2=C1c1sc(=S)n(NS(=O)(=O)c2ccccc2)c1O
-8% | COc1ccccc1N1CCN(C(=O)c2cn(CC(C)C)c(=O)c3c2c2ccccc2n3C)CC1
3% | COc1cc2[nH]c(=O)n(CCCCCC(=O)N3CCN(c4ccccc4)CC3)c(=O)c2cc1OC
-12% | O=C1N/C(=C/c2ccc(Br)s2)C(=O)N1c1ccccc1
2% | Cc1nc(Cl)c(C(=O)NC(=O)Nc2cccc(C(F)(F)F)c2)c(C)c1[N+](=O)[O-]
4% | c1ccc(-c2cc(NCCN3CCCCC3)c3ccccc3n2)cc1
-6% | O=C(O)c1cc2nccc(-c3ccc(F)cc3)n2n1
? | CCC(C)(C)NC(=O)CN(Cc1ccco1)C(=O)CCC(=O)Nc1nccs1
11% | CCOC(=O)C1CCN(C(=O)c2ccc3c(c2)sc2nc(-c4ccccc4)cn23)CC1
-5% | C=CCN1C(=S)CC(c2ccccc2)=Nc2ccccc21
6% | CCOCCc1nnc(NC(=O)C(=O)c2cc(C)n(-c3cccc(Cl)c3)c2C)s1
-4% | CCOC(=O)c1cnc2c(-c3ccc(Cl)cc3)cnn2c1C
-26% | COc1ccc(NC(=O)C2=C(C)C(=O)OC23CCC(C)CC3)c(OC)c1 (stereo not given)
-1% | CC(=O)N1N=C(c2ccc(Cl)cc2)CC1c1ccc([N+](=O)[O-])cc1 (stereo not given)
9% | Cc1cc(O)c(C(=O)c2cnc3c(c2)COc2ccccc2-3)cc1Cl

Looked up by compound from the list above (2):
VDR inhibitor | mol
7% | Cc1cc2n(n1)C(c1ccc(O)cc1)Nc1ccccc1-2 (stereo not given)
-3% | Cc1ccc(CN(c2ccc(C(=O)Nc3ccc4c(c3)OCO4)cc2)S(C)(=O)=O)cc1

Returning to the listing, starting six compounds before the break.
VDR inhibitor | mol
-5% | C=CCN1C(=S)CC(c2ccccc2)=Nc2ccccc21
6% | CCOCCc1nnc(NC(=O)C(=O)c2cc(C)n(-c3cccc(Cl)c3)c2C)s1
-4% | CCOC(=O)c1cnc2c(-c3ccc(Cl)cc3)cnn2c1C
-26% | COc1ccc(NC(=O)C2=C(C)C(=O)OC23CCC(C)CC3)c(OC)c1 (stereo not given)
-1% | CC(=O)N1N=C(c2ccc(Cl)cc2)CC1c1ccc([N+](=O)[O-])cc1 (stereo not given)
9% | Cc1cc(O)c(C(=O)c2cnc3c(c2)COc2ccccc2-3)cc1Cl
0% | Cc1ccc(Nc2nc(-c3c(C)n(C)n(-c4ccccc4)c3=O)c(C)s2)cc1
-1% | COc1ccc(NC(=O)Cn2c(CCC(=O)O)ccc2-c2ccc(C)cc2)cc1
7% | COc1ccc(-c2coc3cc(OC4OC(CO)C(O)C(O)C4O)cc(O)c3c2=O)cc1 (stereo not given)
6% | COc1ccccc1CNC(=O)c1ccc(CSc2nc3ccncc3n2Cc2ccccc2C)cc1
6% | CN(CCOc1ccc(Cl)cc1)C(=O)c1ccccc1SCC(=O)N1CCCC1
-5% | CCOc1ccccc1NC(=O)C(Sc1nnnn1C)c1ccccc1 (stereo not given)
-14% | CN1CCN(C(=O)c2cc(Oc3c(F)c(F)c(F)c(F)c3F)cc(C(=O)N3CCN(C)CC3)c2)CC1
10% | Cc1c(O)c2c(=O)n(-c3ccccc3)c(-c3ccccc3)cc2oc1=O
-1% | CC(NC(=O)C1c2ccccc2Oc2ccccc21)C1CCCO1 (stereo not given)
16% | Cc1c(Cl)cccc1NC(=S)N/N=C/c1ccccc1Cl
-11% | CCOC(=O)Oc1ccc2oc(C)c(C(=O)OCCOC)c2c1
0% | CCOC(=O)C1=C(COc2ccccc2)NC(=O)NC1c1cccc([N+](=O)[O-])c1 (stereo not given)
3% | O=C(CSc1ccccc1)Nc1cc(S(=O)(=O)N2CCOCC2)ccc1N1CCOCC1
-6% | O=c1[nH]c(CCC2CCCC2)nc2ccccc12
3% | COc1ccccc1CNC(=O)COC(=O)c1ccc(-n2cnnn2)cc1
-9% | NC(=O)COC(=O)c1cccc(S(=O)(=O)N2CCN(c3ccccc3)CC2)c1
-4% | COc1ccccc1S(=O)(=O)Cc1ccc(C(=O)N2CCN(c3cccc(Cl)c3)CC2)o1
-14% | COc1ccc(C2C(C#N)=C(C)NC3=C2C(=O)c2ccccc23)cc1 (stereo not given)
8% | NC(=O)CSc1nc2ccccc2c(=O)n1CCc1ccccc1
0% | COc1ccc2nc(Sc3c([N+](=O)[O-])nc(C)n3Cc3ccccc3)[nH]c2c1
-21% | CCOC(=O)C1CCCN(C2=C(NS(=O)(=O)c3ccc(Br)cc3)C(=O)c3ccccc3C2=O)C1 (stereo not given)
6% | COc1ccc(Nc2nc(C)cc(C)c2C#N)cc1OC
-5% | O=C(Nc1ccccc1Cl)c1cccc(NC(=O)C2CCCC2)c1
5% | Cc1ccc2[nH]cc(C(=O)CN3CCN(c4ccccn4)CC3)c2c1
-4% | COc1ccc(Cl)cc1C(=O)Nn1cnc2ccccc2c1=O
1% | O=C(COc1cc2oc(=O)cc(-c3ccccc3)c2cc1Cl)NCCN1CCOCC1
34%[activator] | COc1ccc(S(=O)(=O)N2CCCC(C(=O)NC3CC3)C2)cc1Cl (stereo not given)
20% | COc1ccccc1OCCN(C#N)c1nc(N(C)C)nc(N(C)C)n1
-11% | COCCN1Cc2cccc(C(=O)N3CCN(c4ccccc4)CC3)c2C1=O
1% | O=C1CCCC2=C1CC(C(=O)OCc1ccccc1)C(=O)N2Cc1ccccc1 (stereo not given)
8% | COc1ccc(N2CCN(C(CNC(=O)C(=O)NCC3CCCO3)c3ccco3)CC2)cc1 (stereo not given)
2% | Cc1cc(C)nc(N/N=C2/CCSc3ccc(F)cc32)n1
1% | O=C1CN(C(=O)c2cccc(F)c2)C(c2ccc(F)cc2)c2cc(F)ccc2N1 (stereo not given)
-14% | CN(Cc1ccccc1F)c1nc(-c2cccnc2)nc2ccccc12
17% | CCCSc1nnc2c(n1)OC(c1ccc(OCC(=O)O)cc1)Nc1ccccc1-2 (stereo not given)
9% | Cc1ccc(Cl)cc1NC(=O)N[C@@H](CC(C)C)C(=O)O
8% | CSCCC(NC(=O)c1ccccc1)C(=O)NC1CCCC1 (stereo not given)
-4% | Cc1cc(C(=O)Nc2ccc3c(c2)OCO3)cs1
-7% | O=C(Nc1ccccc1Cl)c1ccccc1
-9% | NC(=O)CC(NC(=O)Cc1ccc(Cl)cc1)c1ccc(NC2CCCCCC2)c([N+](=O)[O-])c1 (stereo not given)
-9% | ClC(Cl)(Cl)c1nc(N/N=C/c2ccncc2)c2ccccc2n1
-5% | O=C(O)c1ccc2c(=O)n3c(nc2c1)/C(=C/c1ccc(F)cc1)CC3
5% | CCN1CCCC1CNC(=O)c1ccc2c(c1)N(Cc1cccc(Cl)c1)C(=O)c1ccccc1S2(=O)=O (stereo not given)
-4% | Cc1nc2cnc(N(C)C)nc2n(CCC#N)c1=O
13% | Cc1cnc(CNc2ccnc(-c3ccccc3C(F)(F)F)n2)cn1
-1% | Cc1cc(NC(=O)CSc2nnc3c(C)cc4ccccc4n23)no1
7% | COc1ccc(Nc2ncnc3ccc([N+](=O)[O-])cc23)c(OC)c1
-4% | COc1ccc(N(C)C(=O)c2cn(CC(C)C)c(=O)c3cc(OC)c(OC)cc23)cc1
0% | CC(C)(CNC(=O)c1cc(-c2ccc(Cl)s2)nc2ccccc12)N1CCOCC1
8% | CS(=O)(=O)c1ccc(Cl)c(NC(=O)c2cccc(-n3cnnn3)c2)c1
0% | CCN(CC)S(=O)(=O)c1ccc(C(=O)Nc2ccc(OCC(=O)N3CCOCC3)cc2)cc1
8% | CCOC(=O)CSc1nc2cc(C(=O)NCc3ccco3)ccc2c(=O)n1C1CCCCC1
11% | COc1ccccc1C(=O)Nc1ccc(OCc2cc(=O)n3ccc(C)cc3n2)cc1
3% | COc1ccc(/C=N/NC(=O)c2ccoc2C)cc1COc1ccc(Cl)cc1
7% | COc1ccc(C(=O)COC(=O)c2cc(C)no2)c(OC)c1
? | CC(C)=CCC/C(C)=C/C=C/C(C)=C/C=C/C(C)=C/C=C/C=C(C)/C=C/C=C(C)/C=C/C=C(\C)CCC=C(C)C
-17% | O=C(COC(=O)/C=C/c1cccs1)NC(c1ccccc1)c1ccccc1
2% | COC(=O)c1ccc(OCC(O)CN2C(=O)c3ccccc3S2(=O)=O)cc1 (stereo not given)
-5% | Nn1c(SCc2cccc(F)c2)nnc1-c1cccnc1
-18% | Clc1ccc(OCc2nc(-c3ccncc3)no2)c(Br)c1

Next part
VDR inhibitor | mol
-1% | CC(=O)c1ccc(NC(=O)Cn2c(=O)nc(-c3ccccc3)c3cc(Cl)ccc32)cc1
-28% | CN(C)/C=C/C(=O)c1cnc(-c2cccc(Cl)c2)s1
14% | CCOC(=O)c1scc(-c2ccccc2)c1S(=O)(=O)Nc1ccccc1OC
5% | O=[N+]([O-])c1cccc(/C=N\N2CCN(Cc3ccccc3Cl)CC2)c1
-12% | CN(C)C(=O)c1ccc(NC(=O)c2cccc(S(=O)(=O)N3CCCCCC3)c2)cc1
-6% | COc1cc(NC(=O)c2ccno2)cc(C(=O)Nc2cccc(C(F)(F)F)c2)c1
0% | Cc1ccc(C(=O)Nc2ccncc2)cc1S(=O)(=O)N1CCOCC1
? | CCNc1nc(C#N)nc(Nc2ccccc2)n1
27% | COc1ccnc(Oc2ccccc2)c1C(N)=O
-6% | COc1cc(C2NC(=O)CCC2[N+](=O)[O-])c(OC)cc1Br (stereo not given)
0% | COc1ccc(NC(=O)C2CCN(C(=O)c3sc4nc[nH]c(=O)c4c3C)CC2)c(OC)c1
-26% | CCCC(=O)N1CC(=O)Nc2ccc(F)cc2C1c1ccccc1 (stereo not given)
3% | CCOc1ccc(CNC(=O)Cn2nc(C)c3sc4ccccc4c3c2=O)cc1
2% | COCC(=O)NCc1ccc2c(c1)OCO2
-12% | CCCCCCCCn1cc(C(C)=O)c(=O)[nH]c1=O
8% | CNc1ccc(NC(C)=O)cc1[N+](=O)[O-]
-17% | COc1cc(CN2CC(=O)N(c3ccc(C)c(C)c3)C2=S)cc(OC)c1OC
2% | O=C(NC1CCCCC1)c1ccc(Cn2c(SCc3cccc(F)c3)nc3cccnc32)cc1
18% | CC(=O)NC(CC(=O)c1ccc([N+](=O)[O-])cc1)C(Cl)(Cl)Cl (stereo not given)
0% | CN(CCc1ccccn1)C(=O)CC1C(=O)NCCN1Cc1ccccc1C(F)(F)F (stereo not given)
20% | O=C(NCCNC(=O)c1cc(Cl)ccc1Cl)c1ccco1
-10% | COC(=O)c1cc(OC)c(OC)cc1NC(=O)c1c(-c2ccccc2Cl)noc1C
-5% | COc1cc(OC)c(-c2sc(Nc3ccccc3)n[n+]2-c2ccc(F)cc2)cc1OC
-2% | CCC1(CC)NC(=O)N(CC(=O)OC(C)C(=O)Nc2cc([N+](=O)[O-])ccc2OC)C1=O (stereo not given)
7% | Cc1nc([N+](=O)[O-])cn1CC(=O)Nc1ccc(F)c(Cl)c1
-6% | CCCCOc1ccc(C(=O)NCC(=O)NC2CCCCC2)cc1
-7% | C=C(C)CSc1nnc(CCCCCNC(=O)OC(C)(C)C)o1
-12% | COc1cc(CCC(=O)N2CCN(S(=O)(=O)c3ccc(C)cc3)CC2)cc(OC)c1OC
-14% | CCN(CC)S(=O)(=O)c1ccc2c(c1)nc(SCC(N)=O)n2-c1ccc(OC)cc1
-11% | O=C(c1cc2ccccc2o1)N1CCN(c2ccccc2Cl)CC1

Some of the entries above in another layout:
> CCC1(CC)NC(=O)N(CC(=O)OC(C)C(=O)Nc2cc([N+](=O)[O-])ccc2OC)C1=O (stereo not given)
  VDR inhibitor: -2%
> Cc1nc([N+](=O)[O-])cn1CC(=O)Nc1ccc(F)c(Cl)c1
  VDR inhibitor: 7%

Continued:
VDR inhibitor | mol
-2% | CCc1ccc(C2=NN(CCC(=O)NC3CCCCCC3)C(=O)CC2)cc1
7% | CCC(=O)Nc1ccc(N2CCN(S(C)(=O)=O)CC2)cc1
7% | CC1=C(C(=O)Nc2ccc(C)c(C)c2)C2(CCCCCC2)OC1=O
-7% | Cc1ccc(N2CC(NC(=O)C3CCCCC3)CC2=O)cc1 (stereo not given)
-4% | CC(=O)NNC(=O)c1cc2c3ccccc3n(C)c2s1
-9% | O=C(COc1ccccc1)N(Cc1ccccc1)c1nc(-c2ccccc2)cs1

Assay outcomes from PubChem BioAssay.
